Compound activity deposited in PubChem by National Center for Advancing Translational Sciences (NCATS).
ClpP mod – qHTS Assay for Activators of ClpP | ATP-dependent Clp protease proteolytic subunit (Bacillus subtilis (strain 168)), P80244 | 340,000 tested, 1.9% active | purified B. subtilis ClpP, FRET peptide cleavage, 20 min | Potency, µM (highest dose often 57.5 µM), for inactives: top-dose activity change, negative = active | AID 651965, 2013; active = well fitted falling curve with a large enough effect; inconclusive = small, poorly fitted or top-dose-only effect; inactive = no such curve, though single readings can be large or run the other way; note: potency is the fitted concentration of half-maximal effect; the source files actives as falling curves though it sought activators and does not explain the sign; nearly all actives have a fitted effect of over 65% in size; many hits overshoot -100%
Target sequence (P80244 whole entry, looked up): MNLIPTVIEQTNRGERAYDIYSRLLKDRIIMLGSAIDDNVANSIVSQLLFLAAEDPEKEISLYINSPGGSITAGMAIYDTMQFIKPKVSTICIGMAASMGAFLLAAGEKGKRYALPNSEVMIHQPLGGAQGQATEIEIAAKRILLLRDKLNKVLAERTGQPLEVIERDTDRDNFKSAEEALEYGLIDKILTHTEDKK
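ClpP 10 microg/mL final, pH 8 Tris/KCl buffer with BSA, glycerol, Tween-20; compound pinned in; FRET-FV substrate; RT 20 min; Ex320/Em430; ΔFRET vs ADEP 5.8 microM, DMSO, no enzyme.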
TRPML1 agonist – agonists of human TRPML1 channel | Q9GZU1 | TRPML1-expressing cells, Ca2+ dye fluorescence, FDSS; host cell line not named in the record; reference of the full effect not given here | activation, % (test concentration not listed) | 410,000 tested, 0.12% active; in the data active = activation above about 50%; inconclusive = about 30% to 50%; inactive = below about 30%; note: 0% is about no effect; the text of the record puts the active cut at 80%
Target sequence (Q9GZU1 whole entry, looked up): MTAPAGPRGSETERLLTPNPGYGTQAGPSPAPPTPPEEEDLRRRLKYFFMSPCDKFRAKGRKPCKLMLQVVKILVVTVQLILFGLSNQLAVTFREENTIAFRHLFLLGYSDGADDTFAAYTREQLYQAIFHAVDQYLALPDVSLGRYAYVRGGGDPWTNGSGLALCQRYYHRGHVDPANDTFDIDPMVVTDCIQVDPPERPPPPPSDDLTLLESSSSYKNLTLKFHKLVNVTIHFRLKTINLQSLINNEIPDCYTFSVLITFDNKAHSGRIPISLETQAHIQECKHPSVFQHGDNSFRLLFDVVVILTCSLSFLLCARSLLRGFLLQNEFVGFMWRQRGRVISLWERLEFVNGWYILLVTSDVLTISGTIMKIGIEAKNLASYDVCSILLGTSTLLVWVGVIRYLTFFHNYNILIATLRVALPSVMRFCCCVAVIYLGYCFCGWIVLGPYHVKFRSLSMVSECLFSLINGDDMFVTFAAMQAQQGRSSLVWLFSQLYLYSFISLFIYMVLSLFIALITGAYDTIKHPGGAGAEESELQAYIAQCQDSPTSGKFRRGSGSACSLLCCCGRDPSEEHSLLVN
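Calcium fluorescence on an FDSS kinetic reader gave the read-out. Tet-induced TRPML1-DL cells were plated overnight, dye-loaded (Ca8 with quencher, 45-90 min, room temperature, dark), then read 110 s after compound addition, and again 110 s after 4uM final 54-4 (EC80).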
Menin-MLL FL inh – inhibitors of human menin-MLL interaction, wild-type MLL peptide | Fluorescence polarization, fluorescein-MLL peptide displacement from menin | FP activity change, % at 61.4 µM | 290,000 tested, under 10 active; inconclusive = falling polarisation curve, or a change in total fluorescence; inactive = total fluorescence flat and polarisation flat or rising; no compound was filed as active; the % refers to the polarisation; negative = inhibition;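 note: % of control where 0% means no effect; inhibitors lower the polarisation; unlabelled MLL peptide was the positive control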
TRPML1 blocker – blocks the human TRPML1 channel; TRPML1-inducible cells, Ca2+ dye fluorescence, FDSS; active compounds read low; inhibition of EC80 agonist-evoked calcium signal; AID 624415; 390,000 tested, 0.02% active; activity change, negative = inhibition, % (no concentration beside the values); Q9GZU1; in the data active means activity change below about -50%; inconclusive means about -30% to -50%; inactive means above about -30%;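 note: stimulus is agonist 54-4 at its EC80 concentration; % is set by controls: 0 for no effect and ±100 for the full control effect; compound concentration not given in the record; the text of the record puts the active cut at -80%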
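Calcium fluorescence in TRPML1-DL cells induced overnight with Tet: a 110 s read after compound pin addition, then a 110 s antagonist read after challenge with 54-4 at 4 uM final (EC80).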
TRPV1 PAM – potentiators of human vanilloid receptor 1 (TRPV1) | potentiation, % at 8.33 µM | Q8NER1 | TRPV1-expressing cells, Fluo-8 calcium influx, capsaicin EC20 potentiation; host cell line not named in the record; control for the full effect not named in the record | 320,000 tested, 0.02% active; active means potentiation above 80%; inconclusive means 30% to 80%; inactive means below 30%; note: 0% is about no effect
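TRPV1-expressing cells were cultured overnight at 35.5C and loaded with Fluo-8 calcium dye for 40 to 90 min at room temperature. After a 10 s baseline, compound was added and calcium influx was read kinetically for 3 min (ex 480/em 520 nm).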
PINK1 expr mod – PINK1 expression modulation; PINK1 immunofluorescence, high-content cytometry, 24 h; Potency, µM (top dose mostly 76.6 µM), without a hit: at the top dose activation (PINK1 increase), actives largely listed as activators; 410,000 tested, 0.2% active; AID 624263; active = well fitted activation curve with a large enough effect; inconclusive = small, poorly fitted or top-dose-only effect; inactive = flat fitted curve, though single readings scatter; cell line not stated here;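 note: potency is the fitted concentration of half-maximal effect; % of control where 0% means no effect; nearly all actives have a fitted effect of over 65% in size; a mitochondrial uncoupler was the plate control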
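Readout is PINK1 immunofluorescence, quantified alongside mitochondrial, cell and nuclear markers by laser-scanning microplate cytometry. Cells from a stable line were exposed to compound titrations (5 concentrations) for 24 hours, with CCCP controls.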
Sfp inh – inhibitors of Bacillus subtilis Sfp phosphopantetheinyl transferase; Biochemical Sfp PPTase activity, qHTS; Potency, µM, inactives show max response, negative = inhibition, hits mostly inhibitors; 310,000 tested, 3.5% active; AID 1490; active = well fitted inhibition curve with a large enough effect; inconclusive = small, poorly fitted or top-dose-only effect, or another doubt; inactive = no such curve, though single readings can be large or run the other way;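 note: the enzyme is Sfp with the accession as filed and its product quenches rhodamine fluorescence; potency is the fitted concentration of half-maximal effect; 0% = enzyme reaction without inhibitor and -100% = no enzyme wells; top concentration of the series not given in the record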
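Compounds were incubated with enzyme (final 15 nM) for 15 min at room temperature before substrate addition started the reaction. Fluorescence at 525 nm excitation, 598 nm emission was recorded immediately and after 30 minutes.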
* marks the source's active call; other numbers are inactive results; ? = inconclusive; . = no result given; & = joins results of further samples; [ ] = remark or other dose.

Compound,ClpP mod,TRPML1 agonist,Menin-MLL FL inh,TRPML1 blocker,TRPV1 PAM,PINK1 expr mod,Sfp inh
O=C(NCCc1ccccc1)c1cc(S(=O)(=O)N2CCCCC2)c[nH]1,-2.7%,1.5,.,-2,.,0.8%,.
Cc1ccc(-c2nn3c(C)nnc3s2)cc1NC(=O)c1ccc(-c2cccc(Cl)c2)o1,50%&-9.6%,0.8&-0.5,25,2,.,-1.4%&3.8%,22µM*
Cc1ccc(S(=O)(=O)N2C[C@H]3C(=O)C[C@@H](c4ccccc4F)N(S(=O)(=O)c4ccc(C)cc4)[C@H]3C[C@H]2c2cccc3ccccc23)cc1,-1.5%,-0.1,.,16,.,7.2%,.
O=C1Nc2ccccc2N=C(c2ccc3c(c2)OCO3)C1N(CCc1ccccc1)C(=O)CSc1ncccn1 (configuration not stated),-1.4%,0.0,.,-17,.,0.6%,.
N#CC1=C(N)Oc2cc(N)ccc2C1c1cccc(Br)c1 (configuration not stated),0.8%,5.8,15,-4,?,2.9%,6%
Cc1cc(C(=O)N2CCN(C/C=C/c3ccccc3)CC2)cs1,16%,1.1,2.3,8,-53,-0.7%,0%
CCOC(=O)c1ccc(S(=O)(=O)Nc2nc3cc(S(=O)(=O)NC4=NCCCCC4)ccc3s2)cc1,.,0.2,-6.5,-13,-3,?,28µM*
COc1cccc(NC(=O)C2(C)CCN2C(=O)C2CCCCC2)c1 (configuration not stated),-4.2%,-0.8,.,.,.,0.0%,.
CCc1ccc2[nH]c3nc(SCc4nnc(-c5ccc(C)cc5)o4)nnc3c2c1,-0.1%,-0.4,3.9,12,22,0.7%,20%
O=C(NCCc1ccc(Cl)cc1)C1CCC(CNc2c(N3CCCCC3)c(=O)c2=O)CC1 (configuration not stated),-0.7%,-1.5,0.1,3,14,-0.2%,-16%
CN(NS(=O)(=O)c1ccc(Cl)cc1)c1ncc(C(F)(F)F)cc1Cl,.,1.5,11,20,-6,15%,26%
CCOc1cccc(CN(CC)CC2CCCN(CCc3cccc(OC)c3)C2)c1O (configuration not stated),1.1%,-0.8,2.0,-3,-1,4.6%,4%
Cc1ccc(NC(=O)Cn2sc3nc(C)cc(C)c3c2=O)c(Cl)c1,-4.2%,.,?,.,-14,0.3%,2.8µM*
COc1ccc(S(=O)(=O)Nc2ccc(F)cc2)c(C)c1C,1.1%,0.7,6.7,-6,-21,3.3%,-1%
CCOC(=O)c1ccc(NC(=O)c2sc3nc4n(c(=O)c3c2C)CCC4)cc1,-3.4%,0.9&-0.4,1.4,-1&7,-3,4.0%&0.2%,-17%
CC[C@H](C)[C@H](NC(=O)c1ccc(Cl)cc1)C(=O)OCC(=O)c1ccc2c(c1)NC(=O)CO2,0.2%,-0.7,7.4,-7,13,4.0%,2%
Cc1ccc(N(CC(=O)NC2CC3CCC2C3)S(C)(=O)=O)cc1C (configuration not stated),-2.1%,0.2,3.7,16,.,1.0%,2%
Cc1ccc(NC(=S)N2CCN(Cc3ccc4c(c3)OCO4)CC2)c(C)c1,0.0%,0.1,.,-12,.,-1.7%,.
Cn1c(CNC(=O)c2ccc3c(c2)OCO3)nnc1SCC(=O)Nc1ccc(F)cc1F,.,0.5,-0.7,-4,18,-1.5%,15%
O=C(CCCNC(=O)c1ccc(Cl)cc1)Nc1nccs1,.,-0.8,.,3,.,3.7%,.
C[C@@H](C(=O)N1CCN(Cc2ccc3c(c2)OCO3)CC1)n1nnc2ccccc2c1=O,-0.6%,0.9,-4.9,-6,19,-0.7%,5%
CCOC(=O)c1cc(NC(=O)SCC(=O)O)c(C)nc1C,-5.0%,-0.2,8.7,11,-27,0.3%,-3%
CN(C(=O)COc1ccccc1)c1nnc(-c2cccnc2)s1,77%,1.5,3.4,19,26,-1.0%,15%
CCOC(=O)Cn1c(=O)n(C2CCCCC2)c2nc(-c3cccc(F)c3)nc(C(N)=O)c21,-22%,2.0,.,-16,.,1.3%,.
Cc1noc(C)c1CSCC(=O)N(C)CC(=O)Nc1ccc(F)cc1,-1.3%,-0.1,.,1,5,4.4%,.
CCN(CC)S(=O)(=O)c1ccc2c(c1)nc(CCC(=O)OCC(=O)Nc1cc(OC)cc(OC)c1)n2C,-3.5%,-0.2,8.2,-1,16,2.9%,4%
CCCCOc1ccc(C(=O)Nc2ccc(N3CCN(C)CC3)cc2)cc1,?,0.1,-2.3,10,-8,5.0%,10%
Cn1c(Oc2ccccc2)c(C=O)c2ccccc21,-2.0%,-0.4,3.5,-6,6,1.9%,13%
Cc1ccc(-c2nnc(Nc3ccc4c(c3)OCO4)c3ccccc23)cc1S(=O)(=O)NC(C)C,1.6%,0.0,0.2,-9,3,-0.9%,2%
O=C(/C=C/c1cccc([N+](=O)[O-])c1)NCc1ccccc1,.,1.1,-3.7,42,-24,-0.9%,?
COc1ccc(Nc2nc(NCc3ccco3)nc(N/N=C/c3ccc(O)cc3)n2)cc1,1.1%,0.8,-7.2,2,-27,-2.4%,4%
CC(=O)Nc1ccc(S(=O)(=O)NCCC(=O)NCCc2ccc(F)cc2)cc1,-3.0%,-1.0,1.7,27,4,-0.9%,24%
CCc1nn2c(N(C)CCO)cc(C)nc2c1-c1ccc(F)cc1,-5.7%,-0.2,3.7,-1,-13,3.3%,-1%
S=C(Nc1cccc2ccccc12)Nc1cccc2ccccc12,.,-1.4,.,30,.,9.5%,.
Cc1cc(C(=O)NCc2cc(C(=O)O)co2)co1,0.2%,0.2,-6.1,6,-1,-0.2%,5%
CN(CCc1cn[nH]c1)C(=O)C1CCC(=O)N(CC2CCCCC2)C1 (configuration not stated),-1.4%,0.8,6.5,6,6,-2.4%,12%
C[C@H]1CN([C@@H](C)CO)C(=O)CCCn2nncc2CO[C@@H]1CN(C)Cc1ccc2c(c1)OCO2,-3.1%,-0.5,.,-8,.,-1.0%,.
Cc1cccc(Nc2nc(N)c([N+](=O)[O-])c(NCc3ccco3)n2)c1,-1.6%,2.4,2.2,12,3,-2.3%,-19%
N#C/C(=N\Nc1ccccc1F)c1nc(-c2ccccc2)cs1,-0.2%,0.7,1.0,8,2,0.0%,15%
CCOc1ccccc1-n1c(SCC(N)=O)nnc1-c1ccc(O)cc1,-1.3%,0.2,-0.3,-10,10,5.4%[38.3 µM],-7%
Cc1c(C)n2c(SCC(=O)NCc3ccc4c(c3)OCO4)nnc2[nH]c1=O,-6.9%,1.2,.,2,-3,0.2%,.
CC1CCN(S(=O)(=O)c2ccc3c(c2)N(CC(=O)NCCc2ccc(Cl)cc2)C(=O)CO3)CC1,1.4%,1.7,.,9,.,2.7%,.
CCCc1cc(-c2n[nH]c(=S)n2C(C)c2ccccc2)cs1 (configuration not stated),-9.1%,1.2,0.3,77,-10,-0.9%[38.3 µM],14%
CNC(=S)N/N=C/c1ccc(OCc2ccccc2)c(Br)c1,?,-1.0,-1.7,-6,-14,5.7%,1%
CN(C)S(=O)(=O)c1cccc(NC(=O)COc2ccc(C(=O)c3ccccc3)cc2)c1,.,0.8,-11,-4,1,3.2%,1%
CCC(C)Nc1nc(C)nc2c1oc1ccccc12 (configuration not stated),-9.0%,2.0,0.5,3,0,0.0%,7%
COCCn1c(SCc2cc(=O)n3ccsc3n2)nnc1-c1ccncc1,.,0.9,-1.3,0,?,3.8%,-1%
CC(C)(C)N1C(=O)c2ccccc2NC(=O)N1Cc1ccc(Br)cc1,-3.5%,2.2,1.2,26,-15,0.3%,1%
COc1ccc(-c2[nH]c(-c3ccc(Cl)cc3)nc2SCC(=O)Nc2nccs2)cc1,-19%,1.0,-0.7,35,-2,-0.2%,-5%
Cc1ccc2oc(-c3cccc(NC(=O)COc4ccc(Cl)cc4C)c3C)nc2c1,3.2%,-0.5,.,.,.,-0.3%,.

Next section
Compound,ClpP mod,TRPML1 agonist,Menin-MLL FL inh,TRPML1 blocker,TRPV1 PAM,PINK1 expr mod,Sfp inh
Cc1cccc(-n2ncc(Cl)c(Cl)c2=O)c1,-0.7%,.,1.5,.,-2,-0.9%,10%
Cc1cccc(Cc2nnc(CCC(=O)NCc3ccncc3C)o2)c1,.,0.9,-8.5,-4,10,-0.5%,6%
CC(=O)N(c1cccc(Br)c1)C1C=CS(=O)(=O)C1 (configuration not stated),1.2%,-0.3,1.3,35,0,-3.1%[38.3 µM],13%
CSc1nncc(=O)[nH]1,0.6%,0.9,0.3,5,2,2.8%[38.3 µM],19%
COc1ccccc1NC(=O)Cn1nnc(C(=O)NCCc2ccccc2)c1N,.,0.0,-6.1,42,-50,4.6%,-6%
C=CCn1c(C)cc(C(=O)COc2nncc3ccccc23)c1C,0.6%,-0.2,-0.2,-4,0,4.6%,-22%
Cc1cc(Oc2ccc([N+](=O)[O-])cc2)nc(N2CCOCC2)n1,.,-0.2,-0.6,12,-1,1.4%,15%
OCC#Cc1cnc2ccccc2c1,-3.6%,1.5,1.3,-6,3,-0.2%,0%
Fc1ccccc1COc1cccc(/C=N/n2cnnc2)c1,-18%,-0.9,1.1,-8,2,-2.3%[38.3 µM],20%
CC(=O)N/N=C(\C)CC(=O)Nc1ccc2c(c1)OCCO2,.,-0.7,4.7,9,5,5.1%,1%
COc1ccc(CNCC(=O)Nc2cccc(S(N)(=O)=O)c2)cc1,35µM*,0.5,2.0,-3,9,2.6%,?
CC(=O)C1=C(O)C(=O)N(CCCN2CCOCC2)C1c1ccccc1[N+](=O)[O-] (configuration not stated),-7.0%,0.4,-11,8,-8,2.5%,-27%
O=C(CN1CCCCC1)Nc1cccc(-n2cnnn2)c1,-0.5%,-0.5,2.0,-3,12,-0.5%,8%
COc1cccc(-c2cc3nc(-c4ccccc4)cc(N4CCC5(CC4)OCCO5)n3n2)c1,16µM*,-0.2,0.9,60,3,2.7%[38.3 µM],-6%
COCCOC(=O)C1=C(C)NC2=C(C(=O)CCC2)C1c1ccc(N(C)C)cc1 (configuration not stated),-2.3%,0.3,4.2,-19,.,2.3%[38.3 µM],-1%
